VDR inhibitor = vitamin D3 receptor (human) inhibition; P11473; VDR-SRC2-3 peptide fluorescence polarization, 2 h; Potency, µM, for inactives: max response, negative = inhibition, actives largely listed as inhibitors; 400,000 tested, 0.93% active; active means well fitted inhibition curve with a large enough effect; inconclusive means small, poorly fitted or top-dose-only effect, or another doubt; inactive means no such curve, though single readings can be large or run the other way; further: series mostly up to about 120 µM
Target sequence (P11473 whole entry, looked up): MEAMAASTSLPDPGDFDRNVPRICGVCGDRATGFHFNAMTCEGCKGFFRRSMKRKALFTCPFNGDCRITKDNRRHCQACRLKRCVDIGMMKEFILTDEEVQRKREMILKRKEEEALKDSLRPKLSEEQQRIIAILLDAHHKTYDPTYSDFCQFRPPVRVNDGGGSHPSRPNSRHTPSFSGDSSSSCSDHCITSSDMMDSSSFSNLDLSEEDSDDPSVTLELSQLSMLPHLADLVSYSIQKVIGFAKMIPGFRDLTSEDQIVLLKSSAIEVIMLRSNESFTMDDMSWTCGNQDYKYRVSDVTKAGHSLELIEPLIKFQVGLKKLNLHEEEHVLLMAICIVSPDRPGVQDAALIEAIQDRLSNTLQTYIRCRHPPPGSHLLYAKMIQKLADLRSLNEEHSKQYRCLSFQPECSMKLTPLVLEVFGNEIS
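The screen uses fluorescence polarization to detect compounds that interfere with recruitment of the SRC2-3 coactivator peptide to VDR; plates are read after 2 h at room temperature.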
Starred values were filed as active, the others as inactive; ? = inconclusive. On the % scale 0 is the no-effect control and ±100 the full control effect; potency means the concentration at half of the fitted maximal effect.

Preview, two compounds:
SMILES	VDR inhibitor
OC(CN1CCN(Cc2ccccc2)CC1)Cn1c2ccccc2c2ccccc21 (stereo not given)	-7.1%
CCC(CC)C(=O)NCc1ccccc1Cl	9.9%

The whole of this part, from the start:
SMILES	VDR inhibitor
OC(CN1CCN(Cc2ccccc2)CC1)Cn1c2ccccc2c2ccccc21 (stereo not given)	-7.1%
CCC(CC)C(=O)NCc1ccccc1Cl	9.9%
COc1ccc(-n2nc(C(=O)NCC(=O)Nc3ccccn3)c3ccccc3c2=O)cc1	2.6%
CCCc1ccc(OCc2ccc(C(=O)N3CCCC3)o2)cc1	-1.1%
O=C(OCC(=O)N1CCCc2ccccc21)c1cnc(Cl)c(Cl)c1	16.6%
COc1ccc(NC(=O)CSc2nc3ccccc3nc2N2CCCC2)c(OC)c1	-9.6%
O=C(c1ccco1)N1CCN(C(=S)Nc2ccc(F)cc2)CC1	-6.3%
CN(C)c1ccc(/C=N/NC(=O)c2cccc(N3CCCC3=O)c2)cc1	-6.0%
Cc1c(Cl)cccc1NS(=O)(=O)c1ccc2c(c1)C1C=CCC1C(c1ccc(C(=O)O)cc1)N2 (stereo not given)	?
CCCCn1c(CCc2ccccc2)nc2cc3[nH]c(=O)c(C(C)C)nc3cc21	-11.5%

Two of these compounds, set out differently:
| SMILES | VDR inhibitor |
| --- | --- |
| O=C(OCC(=O)N1CCCc2ccccc21)c1cnc(Cl)c(Cl)c1 | 16.6% |
| O=C(c1ccco1)N1CCN(C(=S)Nc2ccc(F)cc2)CC1 | -6.3% |

(list continues)
SMILES	VDR inhibitor
CCn1c(=O)cc(SCC(=O)N2CCN(C(=O)c3ccco3)CC2)c2ccccc21	25.8%
O=C(O)CCN1C(=O)c2ccc(NC(=O)CCc3ccccc3)cc2C1=O	-5.5%
CC(=O)Nc1nc(C)c(Cc2ccccc2)c(=O)[nH]1	-6.2%
Cc1noc(C)c1C(=O)Nc1nc(-c2cccs2)cs1	-15.2%
CNC(=O)CCCN1C(=O)c2cccnc2Sc2ccccc21	-1.4%
Cc1cc(C)nc(SCC(=O)N(C)CC(=O)Nc2c(Cl)cccc2Cl)n1	-11.5%
COc1cc([N+](=O)[O-])c2ncccc2c1	11.1%
CCCCCn1c(S(=O)(=O)O)nc2ccccc21	12.2%
CC(=O)Nc1ccc(SC[C@H](Cc2ccccc2)N2CCN(CCc3ccccc3)CCC2=O)cc1	?
N/C(=N\OC(=O)C1CCCCC1)c1ccc(Cl)cc1	8.1%
Cc1ccc(C)c(NC(=O)C(C)CC2COCCO2)c1 (stereo not given)	-27.1%
Cn1ccnc1SCc1ccc([N+](=O)[O-])cc1	0.4%
Cc1sc2ncn(/N=C/c3cn(-c4ccccc4)nc3-c3ccccc3)c(=O)c2c1C	-8.7%
O=C1CC(C(=O)Nc2ccc(C(=O)O)cc2)C(c2ccccc2)O1 (stereo not given)	-3.4%
CCOC(=O)C1CCN(C(=O)c2cnn3c(C)cc(C)nc23)CC1	3.6%
O=C(Cn1nc(C(F)(F)F)c2c1CCC2)Nc1ccc(Cl)cc1	-5.0%
CCNc1nc2nonc2nc1NCC	-10.2%
COc1ccc(N2CCN(C(=O)C3CCN(S(=O)(=O)c4cn(C)cn4)CC3)CC2)cc1	7.7%
O=C(CN1C(=O)C2C3CCC(C3)C2C1=O)OCC(=O)c1cccc([N+](=O)[O-])c1 (stereo not given)	-1.4%
C=Cc1ccc(Cn2c(C(=O)O)c(CNC3CCCCC3)c3ccc(OC)cc32)cc1	5.3%

Reprinted at random: four compounds from above.
SMILES	VDR inhibitor
CCC(CC)C(=O)NCc1ccccc1Cl	9.9%
CN(C)c1ccc(/C=N/NC(=O)c2cccc(N3CCCC3=O)c2)cc1	-6.0%
O=C(O)CCN1C(=O)c2ccc(NC(=O)CCc3ccccc3)cc2C1=O	-5.5%
CCOC(=O)C1CCN(C(=O)c2cnn3c(C)cc(C)nc23)CC1	3.6%

(listing goes on)
SMILES	VDR inhibitor
C=CCn1c(SCc2ccccc2C#N)nnc1-c1ccccc1O	-5.0%
O=C(NCc1ccccc1OC(F)(F)F)C1CCC(=O)N(Cc2ccccn2)C1 (stereo not given)	?
COc1ccc(S(=O)(=O)NCCC(=O)NCc2cccs2)cc1	1.5%
COc1ccc2c(c1OC)C(C1c3c(cc4c(c3OC)OCO4)CCN1C)OC2=O (stereo not given)	-2.3%
COc1ccccc1-c1c(C(F)(F)F)oc2cc(OC(=O)c3cccc([N+](=O)[O-])c3C)ccc2c1=O	-0.4%
Cc1cccc(-c2noc(CCCC(=O)NCc3ccco3)n2)c1	-3.5%
COc1ccc(C(NC(=O)c2ccc(-c3ccccc3)cc2)c2ccccc2)cc1 (stereo not given)	-16.0%
CCOc1ccccc1NC(=O)N1CCCc2ccccc21	7.9%
COc1ccc(N2CCN(c3nc(NCCc4ccc(OC)c(OC)c4)nc(OC)n3)CC2)cc1	10.0%
O=C(NCCCC(=O)N1CCOCC1)c1cccnc1	5.1%
O=C(Nc1ccccc1)C(Cc1cccs1)c1nn[nH]n1 (stereo not given)	-14.6%
CCOC(=O)N1CCC(c2cc(=O)n3[nH]ccc3n2)CC1	1.9%
C=CCNCCCCOc1ccc(OCc2ccccc2)cc1	5.1%
CC(C)CCN1CCC(n2nccc2NC(=O)C2CCOC2)CC1 (stereo not given)	-12.4%
CC(C)n1nc(C(=O)Nc2nc3ccccc3[nH]2)c2ccccc2c1=O	-9.1%
COC(=O)Nc1ccc(S(=O)(=O)N2CCC(C(=O)N3CCCCC3C)CC2)cc1 (stereo not given)	-24.3%
S=c1[nH]nc(CSCCOc2ccccc2)o1	8.7%
Cc1ccccc1-c1noc(C2CCCCC2)n1	-6.3%
O=C(COc1ccc2c(c1)OCO2)Nc1ccc2c(c1)oc1ccccc12	-17.4%
CCn1cc(CNCc2cn(C)nc2-c2ccc(C3CCCCC3)cc2)cn1	3.0%
COc1cc(N2C(=O)CC3(CCCC3)CC2=O)cc(OC)c1OC	-2.4%
Oc1cc2c(cc1CN1CCN(c3ncccn3)CC1)OCO2	-8.7%
CC1CN(CC(=O)Nc2ccc([N+](=O)[O-])cc2Br)CC(C)O1 (stereo not given)	-0.8%
O=C(c1ccc(Cl)cc1)C1CCN(C(=O)c2ccccc2F)CC1	-5.8%
O=C(c1ccc2c(c1)N(Cc1ccc(F)cc1)C(=O)c1ccccc1S2(=O)=O)N1CCN(Cc2ccccc2)CC1	-26.0%
Cc1ccc(C23CC4CC(CC(NC(=O)NCCN(C)C)(C4)C2)C3)cc1	-8.8%
CCCC(=O)Nc1ccc(S(=O)(=O)N2CCC(c3nc4ccccc4[nH]3)CC2)cc1	-3.6%
Cc1ccc(N/N=C/C=C/c2ccco2)cc1	-9.8%
COc1ccccc1-c1noc(CCCC(=O)Nc2ccc(C(N)=O)cc2)n1	-0.5%
CCOc1ccc(/C(O)=C2\C(=O)C(=O)N(CCOCCO)C2c2ccccc2OC)cc1 (stereo not given)	-0.4%
COc1ccc(/C(C)=N/NC(=O)c2nc(C)cc(C)n2)cc1	15.0%
COc1ccc(-c2csc3ncnc(N4CCN(c5ccccc5OC)CC4)c23)cc1	-16.9%
O=C(CN(c1ccc(Br)cc1)S(=O)(=O)c1ccc(Cl)c([N+](=O)[O-])c1)NCC1CCCO1 (stereo not given)	2.6%
CS(=O)(=O)N(CC(=O)N1CCCC1)c1cccc(Cl)c1	-9.8%
CCn1nnc2cc(C(=O)Nc3cccc(S(=O)(=O)N(C)C)c3)ccc21	0.0%
COc1ccccc1C(=O)Nc1ccnn1C1CCN(C)CC1	-3.1%
CCOC(=O)c1cc2ccccc2n1CC(=O)c1ccccc1	-19.2%
O=C(COc1ncnc2cc([N+](=O)[O-])ccc12)N(CCc1ccccc1)Cc1ccccc1	-20.5%
COc1cc(C)nc(NC(=S)N(C)C(=O)c2ccccc2)n1	7.7%
CCCNC(=O)C1CC(=O)N(c2ccc(OCC)cc2)C1 (stereo not given)	-19.4%
CC(=O)c1ccc(S(=O)(=O)NCC(=O)N2CCN(C/C=C/c3ccccc3)CC2)cc1	-15.9%
C/C(=C\c1ccco1)C1C(C#N)=C(N)Oc2n[nH]c(-c3ccccc3)c21 (stereo not given)	-10.0%
CCCCCN(C(=O)NC(=O)NCCCC)S(C)(=O)=O	-4.5%
O=S1(=O)C2CC3C=CC2(O3)C(O)C(Cc2ccccc2)N1Cc1cccc(F)c1 (stereo not given)	-6.1%
CCn1nc([N+](=O)[O-])c(C(C#N)c2nc3cc(C(F)(F)F)ccc3s2)c(Cl)c1=O (stereo not given)	?
CC(OC(=O)CNC(=O)c1ccc(Cl)c([N+](=O)[O-])c1)C(=O)NCc1ccco1 (stereo not given)	?
Cc1cc(=O)[nH]c(N/N=C/CCc2ccccc2)n1	1.7%
Cc1cc(OCC(=O)NCCc2c[nH]c3ccccc23)c2c(C)c(C)c(=O)oc2c1	-9.5%
O=C1C=CN2CCOCC2C1 (stereo not given)	2.8%
OC(c1cc(-c2ccc(C(F)(F)F)cc2)nc(C(F)(F)F)c1)C1CCCCN1 (stereo not given)	-17.0%

(listing goes on)
SMILES	VDR inhibitor
NC(=O)C1CCN(C(=O)CC(c2ccccc2)c2ccccc2)CC1	-9.6%
O=C(COc1ccc(Cl)cc1)OCc1cc(=O)n2nc(C3CCCCC3)sc2n1	8.7%
COc1ccc(/C=C/C(=O)c2c(O)ccc3c(C)cc(=O)oc23)cc1	?
COc1cc(NC(=S)NCCCN2CCOCC2)cc(OC)c1OC	20.2%
O=C(NCCN1CCN(c2ccccc2)CC1)Nc1ccc(Cl)cc1	-12.7%
CS(=O)(=O)NCCCCNc1ccc(C(F)(F)F)cc1[N+](=O)[O-]	-8.5%
O=C(NCCn1cccc1)c1cccc2ccccc12	5.5%
COC(=O)c1c(NC(=O)CSc2nncs2)sc2c1CCCCC2	5.0%
O=C(Nc1ccccc1)c1ccc(-c2ccccc2)s1	-6.4%
Cc1[nH]n(-c2ccccc2)c(=O)c1C(C[N+](=O)[O-])c1ccc(Cl)cc1 (stereo not given)	?
COc1ccc(/C=C2/Sc3ccc(C(=O)N4CCc5ccccc5C4)cc3NC2=O)cc1	-12.5%
O=C(Nc1cccnc1)c1cc(-c2ccccc2O)on1	0.9%
Cc1ccc(NC(=O)c2ccc(OCc3c(C)noc3C)cc2)cc1C	-9.5%
CCOC(=O)COn1c(=O)c(-c2ccc(C)cc2)[n+]([O-])c2ccccc21	-12.0%
CCC(C)C(NC(=O)c1ccccc1NC(=O)c1ccc(OC)cc1)C(=O)NCCCn1ccnc1 (stereo not given)	-8.6%
COC(=O)[C@H](C)NC(=O)NCc1ccccc1F	-2.0%
O=C(CCCOc1ccc(Cl)cc1Cl)Nc1ncccn1	-2.8%
Cc1ccc(NC(=O)CS(=O)CC(=O)Nc2cnc3ccccc3c2)cc1Cl (stereo not given)	11.1%
COC(=O)C(Cc1c[nH]c2ccccc12)NC(=O)c1cccs1 (stereo not given)	-24.8%
O=S(=O)(CS(=O)(=O)Oc1ccccc1)Oc1ccccc1	-20.8%

4 successive compounds from above, for reference:
SMILES	VDR inhibitor
OC(CN1CCN(Cc2ccccc2)CC1)Cn1c2ccccc2c2ccccc21 (stereo not given)	-7.1%
CCC(CC)C(=O)NCc1ccccc1Cl	9.9%
COc1ccc(-n2nc(C(=O)NCC(=O)Nc3ccccn3)c3ccccc3c2=O)cc1	2.6%
CCCc1ccc(OCc2ccc(C(=O)N3CCCC3)o2)cc1	-1.1%

New compounds follow.
SMILES	VDR inhibitor
COc1ccccc1NC(=O)CSc1nnc(-c2ccoc2C)o1	-0.1%
O=C1CCCCC1(CCc1ccncc1)CCc1ccncc1	-6.7%
COc1ccc(N2CCN(C(=S)Nc3ccccc3)CC2)cc1	21.8%
COc1cc(C2NC(=O)N(C)C(C)=C2C(=O)OCc2ccccc2)cc(Br)c1O (stereo not given)	-11.6%
Cc1cc(C)c(C(CC(=O)c2cccs2)C(C#N)C#N)c(C)c1 (stereo not given)	?
COc1ccc(S(=O)(=O)N2CCCCC2)cc1NC(=O)c1cncc(Br)c1	19.9%
CNC(=S)N1N=C(c2ccc(Br)cc2)CC1c1ccc(OC)cc1 (stereo not given)	8.8%
CCCCN(Cc1ccccc1)S(=O)(=O)c1c(N)n(C)c(=O)n(C)c1=O	0.7%
COc1cccc(-n2c(SCC(=O)Nc3c(C)cc(C)cc3C)nc3c([nH]c4ccccc43)c2=O)c1	0.9%
Nc1ccc(NC(=O)CCN2CCOCC2)cc1	-4.4%
COc1cc(OC)c(NC(=O)c2c(C)oc3ncnc(N4CCCCC4)c23)cc1Cl	15.1%
O=C(CSc1ccc2nnc(-c3ccccn3)n2n1)NCC1CCCO1 (stereo not given)	-8.2%
COc1ccc(CCNC(=O)CSc2n[nH]c(N)n2)cc1OC	-5.4%
Cc1oc(-c2cccc(Cl)c2)nc1CS(=O)(=O)CC(=O)NC(C)CCc1ccccc1 (stereo not given)	10.3%
O=C(O)c1ccc(CSc2nnc(-c3ccccc3)n2-c2ccccc2)cc1	0.3%
COc1ccc2c(c1OC)C(=O)N1c3ccccc3C(=O)N(Cc3ccco3)C21 (stereo not given)	?
Cc1ccc(/C=C/C(=O)Nc2ccccc2C(N)=O)cc1	-10.4%
NC(=O)C(c1ccc(Cl)cc1Cl)c1ncc(C(F)(F)F)cc1Cl (stereo not given)	14.0%
O=C(COc1ccccc1Cl)NCCNC(=O)c1ccccn1	7.3%
CCC(CC)NC(=O)C1CC(=O)N(CCc2ccc(F)cc2)C1 (stereo not given)	-6.6%
Cc1ccc(C(=O)c2c[nH]c(C(=O)NCCCN3CCOCC3)c2)cc1	17.7%
Cc1nn(-c2ccc(F)cc2)c(Cl)c1C(=O)N(C)CC(=O)Nc1cccc(F)c1	-1.4%
CCOC(=O)N1CCC(NC(=O)c2cc3cc4cc(OC)ccc4nc3o2)CC1	19.6%
CCOC1=CC(=O)OC(c2ccccc2)C1 (stereo not given)	-16.4%
COc1cc(CNCc2cccc(OC)c2OC)cc(OC)c1	-19.3%
c1ccc(-c2cc3ccccc3[nH]2)cc1	-18.6%
CCOC(=O)C1CCN(C(=O)c2ccc(Cl)c(S(=O)(=O)N3CCCC3)c2)CC1	16.6%

An excerpt; rates above refer to the full screens.
